Vaccinia inh = Vaccinia orthopox stage-specific inhibition; Vaccinia-infected cells, mCherry/Venus stage reporter fluorescence; active compounds read low; some inactives read as strong as hits; activity change (mCherry), % (concentration not given with the values); 89,000 tested, 0.01% active; AID 1053133;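 active = mCherry past -33% and 40 or more points under the early reporter, replicates agreeing; inconclusive = past -33% without that gap or agreement; tested in A549 cells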;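 also: scaled between vehicle wells and reference inhibitor wells; 23 nL library stock went into each well; one replicate is shown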
Vaccinia inh Venus = recorded beside Vaccinia inh, whose call it bears; activity change (Venus), %; measured here: Venus reporter, other viral stage;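 negative = less Venus signal; first of two replicates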
The depositor's hits bear a star; ? = inconclusive; nt = no result given.

nr	compound	Vaccinia inh	Vaccinia inh Venus
1	CNC[C@H]1OCCCC[C@H](C)Oc2ccc(NS(=O)(=O)c3cccs3)cc2C(=O)N([C@@H](C)CO)C[C@@H]1C	28.2	12.8
2	C[C@H]1CN([C@@H](C)CO)C(=O)CCCn2nncc2CO[C@H]1CN(C)CC1CCCC1	3.9	0.6
3	COCC#Cc1ccc2c(c1)O[C@H](CN(C)Cc1cncnc1)[C@@H](C)CN([C@H](C)CO)S2(=O)=O	20.4	5.1
4	CN1C(=O)c2cc(NC(=O)C3CC3)ccc2OC[C@H]2O[C@H](CC(=O)NC3CCC3)CC[C@H]21	12.4	8.9
5	C[C@H](CO)N1C[C@H](C)[C@@H](CN(C)CC2CCCC2)Oc2ncc(-c3ccc(C#N)cc3)cc2C1=O	2.0	0.2
6	Cc1ccc(S(=O)(=O)N[C@H]2C=C[C@@H](CC(=O)NCc3ccncn3)O[C@@H]2CO)cc1	11.4	-2.2
7	CO[C@H](CN(C)C(=O)Nc1ccc(Cl)cc1)[C@H](C)CN(Cc1ccccc1Cl)[C@H](C)CO	-24.5	-11.7
8	C[C@@H]1CCCCO[C@@H](CN(C)CC2CCCCC2)[C@@H](C)CN([C@H](C)CO)C(=O)c2cc(NS(=O)(=O)c3cccs3)ccc2O1	-12.8	-12.7
9	C[C@@H]1CN([C@H](C)CO)C(=O)c2cc(-c3ccc(F)cc3)cnc2O[C@H]1CN(C)C(=O)C1CCC1	16.9	4.3
10	COc1ccc(NC(=O)N(C)C[C@@H]2OCCCC[C@@H](C)Oc3ccc(NC(=O)c4ccccc4)cc3C(=O)N([C@H](C)CO)C[C@H]2C)cc1	-13.9	-8.8
11	O=C(Nc1ccc2c(c1)OCO2)N[C@H]1CC[C@H](CCNC(=O)C2CC2)O[C@@H]1CO	4.5	9.5
12	C[C@H]1CN([C@@H](C)CO)C(=O)c2cc(NC(=O)Nc3ccc(C(F)(F)F)cc3)ccc2O[C@H]1CN(C)C(=O)Nc1ccc(C(F)(F)F)cc1	-17.5	1.3
13	C[C@@H]1CCCCO[C@H](CN(C)C(=O)CCCN(C)C)[C@H](C)CN([C@@H](C)CO)C(=O)c2cc(NS(=O)(=O)c3cccs3)ccc2O1	35.7	19.6
14	C[C@@H]1CN([C@H](C)CO)C(=O)c2cccc(NC(=O)C3CCOCC3)c2O[C@@H]1CN(C)C(=O)Nc1ccc(F)cc1	9.5	9.7
15	CCCN(C)C[C@H]1Oc2cc(-c3ccc(C)cc3)ccc2S(=O)(=O)N([C@H](C)CO)C[C@@H]1C	14.0	3.1
16	C[C@H](CO)N1C[C@H](C)[C@H](CN(C)S(=O)(=O)c2cn(C)cn2)Oc2ccc(NC(=O)CCC(F)(F)F)cc2C1=O	1.1	3.1
17	COC(=O)C[C@H]1CC[C@H]2[C@H](COc3ccc(NC(=O)c4cscn4)cc3C(=O)N2C)O1	-1.7	5.7
18	CCC(=O)N[C@H]1CC[C@H](CC(=O)NCc2ccc(OC)cc2)O[C@H]1CO	2.3	6.0
19	CCCNC(=O)N(C)C[C@@H]1Oc2ncc(C#Cc3ccncc3)cc2C(=O)N([C@H](C)CO)C[C@H]1C	11.2	10.3
20	COc1ccccc1CNC(=O)C[C@@H]1CC[C@@H]2[C@H](COC[C@H](O)CN2Cc2ccc3c(c2)OCO3)O1	-7.6	-17.4
21	Cc1noc(C)c1NC(=O)Nc1ccc2c(c1)C(=O)N([C@@H](C)CO)C[C@H](C)[C@@H](CN(C)S(=O)(=O)c1ccc(F)cc1)O2	22.3	7.9
22	Cc1noc(C)c1S(=O)(=O)Nc1ccc2c(c1)C(=O)N([C@@H](C)CO)C[C@H](C)[C@H](CN(C)C(=O)Nc1cccc3ccccc13)O2	-19.4	-6.9
23	O=C(Nc1cc(F)ccc1F)N1C[C@@H]2[C@H](c3ccccc31)[C@H](CO)N2CC1CCCC1	0.3	9.4
24	Cc1ccc(S(=O)(=O)Nc2ccc3c(c2)C(=O)N([C@H](C)CO)C[C@H](C)[C@H](CN(C)Cc2ccc4c(c2)OCO4)OCCCC[C@@H](C)O3)cc1	-30.9	-25.8
25	C[C@@H]1CCCCO[C@H](CN(C)Cc2ccc(C(F)(F)F)cc2)[C@H](C)CN([C@H](C)CO)C(=O)c2cc(NS(=O)(=O)c3ccc(Cl)cc3)ccc2O1	?	nt
26	C[C@H](CO)N1C[C@H](C)[C@H](CN(C)Cc2ccc(Cl)c(Cl)c2)Oc2ccc(NC(=O)Nc3ccc(F)cc3)cc2CC1=O	-18.1	-22.2
27	COCC(=O)Nc1ccc2c(c1)C(=O)N(C)C[C@@H](OC)[C@H](C)CN(C(=O)c1ccccn1)[C@@H](C)CO2	12.0	8.1
28	CCS(=O)(=O)N1CCC2(CC1)CN(Cc1cccnc1)[C@@H](CO)c1c2c2ccc(OC)cc2n1C	7.0	3.6
29	Cc1noc(C)c1S(=O)(=O)N(C)C[C@H]1Oc2ccc(NC(=O)Nc3ccc(F)cc3)cc2CC(=O)N([C@@H](C)CO)C[C@H]1C	5.4	2.0
30	C/C=C/c1ccc2c(c1)O[C@@H](CN(C)S(=O)(=O)c1ccc(C)cc1)[C@@H](C)CN([C@@H](C)CO)S2(=O)=O	?	nt
31	COc1ccc2c3c([nH]c2c1)[C@@H](CO)N(Cc1nccs1)CC31CCN(Cc2ccncc2)CC1	?	nt
32	Cc1ccc(S(=O)(=O)N2CC[C@H]3[C@@H](CO)N(C)c4ccc(-c5ccccc5F)cc4[C@H]32)cc1	?	nt
33	COc1ccccc1-c1cnc2c(c1)C(=O)N([C@@H](C)CO)C[C@@H](C)[C@H](CN(C)C)O2	10.3	5.4
34	O=C(Nc1ccccc1F)N1CC(=O)N2[C@H](C1)[C@H](c1ccc(-c3cccnc3)cc1)[C@@H]2CO	9.7	9.3
35	Cc1ccc(S(=O)(=O)N(C)C[C@H]2OCCCC[C@H](C)Oc3ccc(NS(=O)(=O)c4ccc(Cl)cc4)cc3C(=O)N([C@@H](C)CO)C[C@H]2C)cc1	-26.6	-16.3
36	CCNC(=O)[C@H]1[C@H](CO)[C@H]2Cn3c(ccc(-c4ccccc4F)c3=O)[C@@H]1N2CC	10.4	11.4
37	COc1ccccc1CNC(=O)C[C@H]1C=C[C@@H](NC(=O)CN(C)C)[C@H](CO)O1	17.3	11.1
38	O=C(C[C@@H]1CC[C@@H](NC(=O)CN2CCOCC2)[C@@H](CO)O1)NC1CCC1	0.6	7.2
39	C[C@H]1CN([C@@H](C)CO)C(=O)c2cc(NC(=O)Cc3ccccc3)ccc2O[C@@H]1CN(C)C(=O)Nc1ccc(F)cc1	4.7	7.4
40	O=C(Nc1ccc2c(c1)OCO2)N1C[C@@H]2N[C@H](C1)C2c1ccc(C=Cc2ccccc2)cc1 (some centres undefined)	?	nt

Some of the entries so far, as labelled records.
(37) COc1ccccc1CNC(=O)C[C@H]1C=C[C@@H](NC(=O)CN(C)C)[C@H](CO)O1
  Vaccinia inh: 17.3
  Vaccinia inh Venus: 11.1
(38) O=C(C[C@@H]1CC[C@@H](NC(=O)CN2CCOCC2)[C@@H](CO)O1)NC1CCC1
  Vaccinia inh: 0.6
  Vaccinia inh Venus: 7.2
(39) C[C@H]1CN([C@@H](C)CO)C(=O)c2cc(NC(=O)Cc3ccccc3)ccc2O[C@@H]1CN(C)C(=O)Nc1ccc(F)cc1
  Vaccinia inh: 4.7
  Vaccinia inh Venus: 7.4
(40) O=C(Nc1ccc2c(c1)OCO2)N1C[C@@H]2N[C@H](C1)C2c1ccc(C=Cc2ccccc2)cc1 (some centres undefined)
  Vaccinia inh: ?
  Vaccinia inh Venus: nt

The list continues.
nr	compound	Vaccinia inh	Vaccinia inh Venus
41	C[C@@H]1CN([C@@H](C)CO)C(=O)c2cc(C#CC3(O)CCCC3)cnc2O[C@@H]1CN(C)S(=O)(=O)c1ccccc1	6.8	9.3
42	C[C@H](CO)N1C[C@H](C)[C@H](CN(C)C(=O)Nc2cccc3ccccc23)Oc2c(NC(=O)C3CCCCC3)cccc2C1=O	6.1	1.6
43	CCCNC(=O)N(C)C[C@@H]1Oc2ncc(C#C[C@@H](C)O)cc2C(=O)N([C@H](C)CO)C[C@H]1C	19.0	14.5
44	C[C@@H]1CN([C@H](C)CO)C(=O)c2cc(-c3cccnc3)cnc2O[C@H]1CN(C)C(=O)c1ccccc1F	16.5	6.1
45	C[C@@H]1CN([C@@H](C)CO)C(=O)c2c(c3ccccc3n2C)-c2ccccc2CO[C@@H]1CN(C)CC1CCCCC1	?	nt
46	O=C(N[C@@H]1CC[C@@H](CCNS(=O)(=O)c2ccccc2Cl)O[C@@H]1CO)c1ccc(F)cc1	-3.0	-8.9
47	N#C[C@H]1[C@H](c2ccc(C#Cc3cccc(F)c3)cc2)[C@@H](CO)N1C(=O)C1CCOCC1	-28.3	-18.8
48	CCCC(=O)Nc1ccc2c(c1)C(=O)N(C)[C@@H]1CC[C@H](CC(=O)Nc3cn(C)nc3C)O[C@H]1CO2	7.5	9.8
49	COCC(=O)Nc1ccc2c(c1)C(=O)N(C)C[C@H](OC)[C@H](C)CN(CC1CCCCC1)[C@H](C)CO2	-12.0	-4.5
50	C[C@H]1CN([C@@H](C)CO)C(=O)c2cccc(NC(=O)C3CCOCC3)c2O[C@@H]1CN(C)Cc1ccc(Cl)c(Cl)c1	?	nt
51	O=C(C1CC1)N1CC2(C1)[C@@H](c1ccccc1)[C@@H](CO)N2S(=O)(=O)c1ccccc1	11.9	10.9
52	CCC(=O)N1CC2(C1)[C@H](c1ccc(-c3ccc(F)cc3)cc1)[C@H](CO)N2C(C)=O	10.3	8.1
53	COc1ccccc1-c1cnc2c(c1)C(=O)N([C@@H](C)CO)C[C@H](C)[C@H](CN(C)C(=O)c1ccncc1)O2	4.8	0.5
54	O=C(C[C@@H]1C[C@@H]2c3cc(NC(=O)C4CCOCC4)ccc3O[C@@H]2[C@@H](CO)O1)NCc1ccccn1	15.2	10.4
55	CO[C@@H]1CN(C)C(=O)c2cc(NC(=O)C3CCCCC3)ccc2OC[C@H](C)N(C)C[C@@H]1C	-3.3	2.7
56	O=C(C[C@H]1C[C@@H]2c3cc(NS(=O)(=O)c4ccc(F)cc4)ccc3O[C@@H]2[C@@H](CO)O1)NC1CCCC1	-0.5	-4.2
57	O=C(C[C@@H]1C[C@H]2c3cc(NC(=O)c4cccnc4)ccc3O[C@H]2[C@H](CO)O1)NC1CCCC1	7.6	8.3
58	C[C@@H]1CN([C@@H](C)CO)C(=O)c2cc(NC(=O)CCCCCC(=O)Nc3ccccc3N)ccc2O[C@H]1CN(C)C(=O)Nc1ccc2c(c1)OCO2	3.0	-1.0
59	[N-]=[N+]=NCc1ccccc1C[C@]1(C(=O)N2CCCCC2)COC(c2ccc(OCCCO)cc2)=N1	21.5	10.1
60	C[C@@H]1CN([C@H](C)CO)C(=O)c2cccc(NS(=O)(=O)c3ccc(Cl)cc3)c2O[C@@H]1CN(C)Cc1ccc(C(=O)O)cc1	3.2	9.6
61	COc1ccc([Si](C)(C)[C@@H]2[C@@H](CCn3cc(CCO)nn3)O[C@]3(C(=O)N(c4ccccc4)c4ccccc43)[C@H]2C)cc1	?	nt
62	CN1CCN(C(=O)C[C@H]2CC[C@@H](NC(=O)c3ccc4c(c3)OCO4)[C@@H](CO)O2)CC1	2.6	6.0
63	C[C@@H]1CN([C@H](C)CO)C(=O)c2cc(NC(=O)Nc3cccc4ccccc34)ccc2O[C@@H](C)CCCCO[C@@H]1CN(C)CC1CCCCC1	-17.6	-8.9
64	C[C@H]1CN([C@@H](C)CO)C(=O)Cc2cc(NC(=O)Cn3cnnn3)ccc2O[C@H]1CN(C)Cc1ccc(-c2ccccc2)cc1	-3.1	-5.5
65	CC(C)CC#Cc1cnc2c(c1)C(=O)N([C@@H](C)CO)C[C@H](C)[C@H](CN(C)C(=O)Nc1cc(F)ccc1F)O2	-19.7	-18.6
66	CN1c2ccc(Br)cc2[C@@H]2[C@@H](CCN2C(=O)Nc2ccc(F)cc2)[C@H]1CO	12.0	2.7
67	CN1CCCCN2[C@H](C1)[C@H](c1ccc(-c3cccnc3)cc1)[C@@H]2CO	-5.4	-9.0
68	COc1ccc2c3c(n(C)c2c1)[C@H](CO)N(Cc1ccccc1)CC31CCN(S(=O)(=O)c2ccc(C)cc2)CC1	-20.1	-10.6
69	Cc1noc(C)c1S(=O)(=O)N(C)C[C@@H]1OCCCC[C@@H](C)Oc2ccc(NC(=O)NC(C)C)cc2C(=O)N([C@@H](C)CO)C[C@H]1C	6.1	7.4
70	CN1c2ccc(Br)cc2[C@@H]2[C@@H](CCN2C(=O)C2CCOCC2)[C@H]1CO	30.3	5.4
71	O=C(Nc1ccccc1)N1CCCCN2[C@@H](CO)[C@H](c3ccc(-c4ccccc4)cc3)[C@@H]2C1	?	nt
72	O=C(N[C@H]1CC[C@@H](CC(=O)N2CCCCC2)O[C@H]1CO)c1ccccn1	15.0	4.1
73	C[C@H]1CN([C@@H](C)CO)S(=O)(=O)c2ccc(-c3ccncc3)cc2O[C@H]1CN(C)Cc1ccccn1	9.7	4.1
74	C[C@H](CO)N1C[C@H](C)[C@@H](CN(C)Cc2ccccc2)OCCCC[C@H](C)Oc2ccc(NS(=O)(=O)c3cn(C)cn3)cc2C1=O	21.9	11.4
75	CC(C)CC#Cc1ccc2c(c1)O[C@H](CN(C)C(=O)c1ccncc1)[C@H](C)CN([C@H](C)CO)S2(=O)=O	-34.3	-36.2
76	O=C1CN(Cc2ccc(F)cc2)C[C@H]2[C@@H](c3ccc(-c4ccccc4F)cc3)[C@H](CO)N12	-14.1	-7.2
77	C[C@@H]1CN([C@@H](C)CO)S(=O)(=O)c2ccc(Br)cc2O[C@H]1CN(C)C(=O)c1cccc(F)c1	2.6	2.7
78	Cc1ccc(-c2ccc3c(c2)O[C@@H](CN(C)Cc2cccc(C(=O)O)c2)[C@@H](C)CN([C@H](C)CO)S3(=O)=O)cc1	2.8	-0.4
79	C[C@H]1CN([C@@H](C)CO)C(=O)c2cc(NC(=O)C3CC3)ccc2O[C@@H]1CN(C)Cc1ccc(-c2ccccc2)cc1	1.2	4.4

Bioassay records (PubChem BioAssay)

The list is partial (hit frequency here may not be typical).
